Screens (PubChem)
FGF22 binding – binders of recombinant human FGF22 by thermal shift | 1.5% of 340,000 active | SYPRO orange fluorescence; percent of sucrose octasulfate shift, DMSO zero | AID 651658 | calls only at 9.99 µM;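 active = melting point raised past a set limit in the mean and every replicate; inconclusive = no clear call; three in four hits are not shown here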
Target sequence (Q9HCT0 whole entry, looked up): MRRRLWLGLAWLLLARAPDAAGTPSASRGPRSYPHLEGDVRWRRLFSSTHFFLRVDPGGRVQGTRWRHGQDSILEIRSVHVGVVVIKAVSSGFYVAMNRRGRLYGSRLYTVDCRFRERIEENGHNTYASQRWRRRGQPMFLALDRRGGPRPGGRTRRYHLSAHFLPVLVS
Ecoli growth – E. coli growth inhibition. OD600 absorbance (test concentration not listed). 0.21% of 330,000 active. Escherichia coli growth, OD600, 23 h; hits give low values;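 active = OD600 absorbance below the run mean of sample wells minus 3.6 SD, in any replicate, cut at about 0.56 in these data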;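 also: stock transfer was 300 nL into about 60 µL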
Beta cell apopt – blocks beta cell apoptosis. INS-1E cytokine-induced death, ATP luminescence, 48 h; percent of positive-control rescue, neutral wells zero. 0.8% of 300,000 active. protection from apoptosis, % (no concentration beside the values);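 active = all replicates at 75% or more, or half of them and the mean; inconclusive = half reach 75% but not the mean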;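 also: 0% = cytokine-treated negative control wells and 100% = positive control rescue; higher means more ATP so stronger rescue from cytokine killing; wells of about 40 µL received 100 nL stock; the first replicate is given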
Ecoli rRNA inh – selective bacterial rRNA inhibition in E. coli; E. coli WT GFP vs humanized-ribosome RFP mutants, fluorescence, 24 h; hits give low values; DMSO median 0, no signal -100; GFP signal change (wild-type ribosome), % (no concentration beside the values); 1.6% of 350,000 active; AID 720706;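 active = significant combined selectivity score with lowered wild-type GFP, culture density cut under 30%, mutant RFP and density less affected; inactive = any of these conditions unmet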; also: one replicate is shown; some compounds called inactive have numbers as strong as hits
UCH37 DUB inh – human UCH37 deubiquitinating enzyme inhibition; Q9Y5K5; purified proteasome/UCH37, Ub-AMC cleavage fluorescence; inhibition, % (test concentration not listed); 0.33% of 330,000 active; AID 588478;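 active = mean of two replicates above 20%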;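 also: 0% = compound-free wells with enzyme and 100% = wells lacking proteasome; stock transfer was 100 nL into about 20 µL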
Target sequence (Q9Y5K5 whole entry, looked up): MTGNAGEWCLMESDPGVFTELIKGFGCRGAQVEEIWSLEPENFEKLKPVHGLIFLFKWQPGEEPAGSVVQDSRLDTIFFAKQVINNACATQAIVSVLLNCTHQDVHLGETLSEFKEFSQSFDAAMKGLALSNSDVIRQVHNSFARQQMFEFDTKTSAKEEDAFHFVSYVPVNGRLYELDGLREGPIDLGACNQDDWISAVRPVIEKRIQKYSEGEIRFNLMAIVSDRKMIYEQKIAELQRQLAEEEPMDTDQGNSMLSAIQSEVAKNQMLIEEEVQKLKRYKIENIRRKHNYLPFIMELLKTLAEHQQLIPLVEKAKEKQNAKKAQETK
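Material: Human UCH37 enzyme supplied as purified proteasome complex | Schedule: 30 min preincubation with enzyme, 25 min cleavage at room temperature | Detection: AMC fluorescence 355/460 nm | Measure: % inhibition of Ub-AMC cleavage fluorescence | Controls: Wells without proteasome as full block, compound-free enzyme plus substrate as uninhibited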
MLL AF4-AF9 inh – blocks AF4 peptide binding to human AF9. P42568. AlphaScreen, biotin-AF4 peptide binding to FLAG-AF9. inhibition, % at 10 µM. 0.47% of 350,000 active. AID 651704;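 active = every replicate reaching a set inhibition limit, whatever the replicate mean, cut at about 25% in these data; inconclusive = mean inhibition reaches that limit but some replicates miss it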;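 also: 0% = plate neutral control median and 100% = total signal loss; the record names both 10 and 1 µM as test concentration; the first replicate is given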
Target sequence (P42568 whole entry, looked up): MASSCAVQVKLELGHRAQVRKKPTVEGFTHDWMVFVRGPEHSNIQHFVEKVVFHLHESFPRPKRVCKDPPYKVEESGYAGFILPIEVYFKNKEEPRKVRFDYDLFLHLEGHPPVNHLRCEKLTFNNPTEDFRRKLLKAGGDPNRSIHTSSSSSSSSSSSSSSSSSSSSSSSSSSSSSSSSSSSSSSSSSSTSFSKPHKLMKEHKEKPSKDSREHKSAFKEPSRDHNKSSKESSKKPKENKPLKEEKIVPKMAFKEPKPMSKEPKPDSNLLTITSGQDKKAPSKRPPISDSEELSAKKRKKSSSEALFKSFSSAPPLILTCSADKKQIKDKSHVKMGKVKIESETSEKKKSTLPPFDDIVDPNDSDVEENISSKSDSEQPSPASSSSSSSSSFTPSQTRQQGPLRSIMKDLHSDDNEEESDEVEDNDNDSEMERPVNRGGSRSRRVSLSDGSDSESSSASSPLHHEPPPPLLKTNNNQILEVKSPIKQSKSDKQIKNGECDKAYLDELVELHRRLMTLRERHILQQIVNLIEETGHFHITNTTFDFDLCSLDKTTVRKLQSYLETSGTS
Bfl-1 A1 inh – inhibitors of the anti-apoptotic protein A1, read as caspase activation | MEF A1-2A-BIM cells, Caspase-Glo 3/7 luminescence, 3 h; percent of clofoctol response, vehicle zero | caspase activation, % (concentration not given with the values) | 0.066% of 330,000 active;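 active = over half of replicate activation scores above 10%, or exactly half above 10 with the replicate mean above 10; inconclusive = replicate mean below 10 yet half the replicates above 10; inactive = over half of replicates below 10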;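 also: wells of about 30 µL received 50 nL stock; many hits fall short of the cut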
T cruzi repl – blocks replication of Trypanosoma cruzi. T. cruzi beta-gal in NIH3T3, luminescence, 90 h. inhibition, % (concentration not given with the values). 1.4% of 300,000 active;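 active = mean inhibition across valid replicates above about 55%, limit read from the data; inconclusive = mean below that limit but half or more replicates reach it; inactive = mean below it, under half of replicates reach it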;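 also: signal also drops with host cell toxicity which is not excluded here; 0% = plate median of DMSO wells and 100% = zero luminescence signal; higher percent means less beta-gal luminescence so fewer parasites; stock transfer was 50 nL into about 50 µL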
Ecoli rRNA inh OD600 – recorded beside Ecoli rRNA inh, whose call it bears; OD600 change, %; measured here: OD600 growth;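 optical density of the mix in the first replicate; 0 = DMSO median and -100 = no signal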
Ecoli rRNA inh RFP – also measured in Ecoli rRNA inh; calls as there; RFP signal change, %; measured here: RFP humanized mutant strains;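 first replicate; 0 = DMSO median and -100 = no signal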
* = called active by the depositor; i = inactive; ? = inconclusive; / = not tested or not shown. These rows are one share of the data; count on the stated rates, not on these rows.

SMILES | FGF22 binding | Ecoli growth | Beta cell apopt | Ecoli rRNA inh | Ecoli rRNA inh OD600 | Ecoli rRNA inh RFP | UCH37 DUB inh | MLL AF4-AF9 inh | Bfl-1 A1 inh | T cruzi repl
O=C(NCC1CCCO1)c1cc2c(s1)CCCC2 (centres undefined) | i | 0.67 | -1 | 4 | 10 | 2.4 | -0.4 | -2.9 | -1.8 | /
Cc1nc2ccc(NC(=O)c3ccc(Cl)c(S(=O)(=O)N(C)c4ccccc4)c3)cc2s1 | / | 0.67 | -5 | / | / | / | -2.5 | / | -0.4 | 16
Cc1ccc(S(=O)(=O)N2CCOCC2)cc1NC(=O)COC(=O)Cc1ccc(Cl)cc1 | i | 0.71 | -2 | 3 | -5 | 1.8 | 2.8 | -9.1 | 1.1 | /
COc1ccc(Cl)cc1C(=O)Nc1ccc(NC(C)=O)cc1 | i | 0.71 | 1 | 10 | -7 | -3.4 | -9.6 | -2.2 | -0.5 | 15
Cc1cccc(NC(=O)CCCN2C(=O)C(c3ccccc3)Oc3cccnc32)c1C (centres undefined) | i | 0.67 | 1 | 0 | -10 | -1.5 | 4.3 | 1.6 | 0.8 | 21
COc1ccc(COC(=O)C2=C(C)NC(=O)NC2c2cc(Br)c(O)c(OC)c2)cc1 (centres undefined) | i | 0.64 | 0 | -21 | -34 | 9.5 | 0.2 | 0.8 | -0.4 | -6
COc1ccc(CNC(=O)c2ccc3c(c2)N(C)C(=O)CS3=O)cc1 (centres undefined) | i | 0.76 | 2 | 7 | 6 | 1.7 | 3.2 | 0.7 | -1.0 | -1
Cc1ccc(NC(=O)CSCC(=O)Nc2cc(Cl)ccc2N2CCOCC2)cc1 | i | 0.64 | 5 | -7 | -15 | -3.5 | 1.2 | -0.8 | ? | 7
O=C(Cn1nc(-c2ccccc2F)ccc1=O)NCc1ccc2c(c1)OCO2 | / | 0.72 | -2 | / | / | / | 5.6 | / | -0.7 | -6
CCCCOC(=O)Nc1cc(OC)c(Cl)cc1OC | / | 0.66 | -4 | / | / | / | 3.1 | / | / | 2
O=C(Nc1ccc(C(=O)N2CCOCC2)cc1)Nc1cccc(Cl)c1 | / | 0.66 | -3 | / | / | / | 4.2 | / | -4.7 | -2
CC(NC(=O)Cc1ccccc1)c1ccccc1 (centres undefined) | i | 0.71 | 1 | 1 | -1 | -1.3 | 2.7 | -4.1 | -0.3 | -1
O=C(c1ccc(-c2cccc([N+](=O)[O-])c2)o1)N1CCN(c2ccc([N+](=O)[O-])cc2)CC1 | i | 0.71 | / | 0 | 4 | -1.8 | 6.8 | -1.4 | / | /
COc1cc(-c2nnc(SC(C)C(=O)Nc3c(C)n(C)n(-c4ccccc4)c3=O)o2)cc(OC)c1OC (centres undefined) | / | 0.74 | -8 | / | / | / | 1.2 | / | -1.7 | -15
CC(C)NS(=O)(=O)c1ccc(NC(=O)C(C)OC(=O)CCCOc2ccccc2)cc1 (centres undefined) | i | 0.63 | / | -2 | 0 | 1.1 | -2.2 | -62 | / | /
COc1ccc(N/C(N)=N/c2nc(C)cc(C)n2)c(OC)c1 | i | 0.69 | 0 | 11 | 7 | -2.3 | 4.7 | 0.9 | 0.6 | -10
O=C(CCCn1c(=O)[nH]c2cc(Cl)ccc2c1=O)NC1CCCCCCC1 | / | 0.68 | 1 | / | / | / | -1.1 | / | 0.2 | 5
CCN(CC)CCNc1nc(-c2cccs2)c(CC(=O)O)s1 | i | 0.64 | -7 | 17 | 7 | 2.8 | 2.2 | 7.1 | 0.5 | 6
O=C(CCN1CCN(c2ccccc2F)CC1)Nc1ccc(F)cc1 | i | 0.65 | 3 | 1 | 1 | 1.5 | 3.2 | -0.8 | 0.4 | -10
COc1cccc(-n2c(C)nn(CCOc3ccccc3)c2=O)c1 | i | 0.7 | -4 | 6 | 11 | -1.2 | 4.9 | -0.3 | 0.2 | -14
CSCCC(NC(=O)c1ccccc1)C(=O)N1CCCCCCC1 (centres undefined) | i | 0.66 | -7 | 10 | 12 | 5.6 | 1.3 | -4.8 | 0.9 | /
CCOc1ccc(S(=O)(=O)N(CC)CC(=O)NC2CCS(=O)(=O)C2)cc1 (centres undefined) | i | 0.69 | -2 | 15 | 12 | -0.9 | 0.4 | 0.7 | 1.8 | /
CCn1c(-c2ccc[nH]c2=O)nc2ccccc21 | i | 0.66 | -6 | 4 | 8 | -0.4 | -209 | -2.3 | 0.5 | -3
CC(C)C[C@H](NC(=O)OC(C)(C)C)C(=O)N1CCC(C(=O)N[C@@H](Cc2ccccc2)C(=O)O)CC1 | / | 0.64 | -4 | / | / | / | 2.3 | / | 0.0 | /
O=C(Nc1ccccc1[N+](=O)[O-])c1nc[nH]c1C(=O)NCCO | / | 0.7 | / | / | / | / | 2.7 | / | -0.4 | -22

Following part:
SMILES | FGF22 binding | Ecoli growth | Beta cell apopt | Ecoli rRNA inh | Ecoli rRNA inh OD600 | Ecoli rRNA inh RFP | UCH37 DUB inh | MLL AF4-AF9 inh | Bfl-1 A1 inh | T cruzi repl
O=[N+]([O-])c1ccc(Cl)c(C[n+]2cccc3ccccc32)c1 | i | 0.7 | -7 | 18 | 11 | 4.8 | -0.4 | -2.8 | 0.7 | 1
Cc1ccnc(NS(=O)(=O)c2ccc(NC(=O)CN3C(=O)c4ccccc4S3(=O)=O)cc2)n1 | i | 0.68 | -5 | 14 | 13 | 5.1 | -1.9 | -3.0 | 0.8 | 2
CCOc1ccc(CCNC(=O)C2CC(C)=CCC2C(=O)O)cc1OCC (centres undefined) | i | 0.69 | 0 | 10 | 12 | -0.2 | 2.9 | -1.1 | 1.3 | -18
CSC1=C(C#N)C(C)CC(=O)N1 (centres undefined) | / | 0.68 | 3 | / | / | / | 10 | / | -0.4 | -8
CN(CCCN1CCOCC1)Cc1nc(-c2ccccc2)no1 | i | 0.69 | -2 | 6 | 14 | 1.4 | 4.0 | 1.9 | 1.9 | 12
CC(C)N=C1NN=C(c2ccc(F)cc2)CS1 | / | 0.69 | 4 | 16 | 18 | 4.6 | 9.8 | 3.3 | -7.8 | -13
O=C(NNC(=O)c1cccs1)c1cccc(F)c1 | i | 0.68 | -6 | 10 | 12 | -3.2 | 0.7 | 1.4 | -0.5 | 5
C/C(=N/NC(=O)c1ccc2c(c1)OCO2)c1ccc(NC(=O)c2ccc(F)cc2)cc1 | i | / | -6 | 5 | 18 | 5.2 | / | -2.0 | 1.6 | /
O=C(Nc1cccc(NC(=O)c2ccco2)n1)c1ccco1 | i | 0.7 | 4 | 1 | 5 | -1.0 | -0.8 | -0.3 | -0.1 | -9
COc1ccc(OCc2nnc(NC(=O)Nc3ccccc3F)s2)cc1 | i | 0.67 | -15 | 6 | 2 | 0.2 | 2.0 | -0.4 | 0.6 | -7
COC(=O)c1cccc(NC(=O)COc2cccc([N+](=O)[O-])c2)c1 | i | 0.62 | -1 | 0 | -7 | -0.3 | 33* | -0.5 | -0.4 | -3
O=C(/C(=C/c1cccc(Cl)c1)c1nc2ccccc2[nH]1)c1ccccc1 | / | 0.7 | 101* | / | / | / | -3.2 | / | -0.5 | 68*
CCc1noc(C)c1C(=O)N(CCC(C)C)c1c(N)n(Cc2ccccc2)c(=O)[nH]c1=O | i | 0.7 | 1 | 7 | 23 | -0.2 | -3.0 | -7.6 | 0.0 | -10
COc1ccc(C(=O)NCCCN2CCOCC2)cc1OC | / | 0.69 | 0 | / | / | / | 0.7 | / | 0.8 | -13
CC(C)(C)NC(=O)NC(=O)CN1CCN(c2ccc(O)cc2)CC1 | i | 0.69 | 12 | 3 | 5 | -1.0 | 1.0 | -2.0 | -1.6 | -4
COc1ccc(C2=Nn3c(nnc3-c3ccccc3F)SC2)cc1OCC1CC1 | i | 0.67 | 18 | -15 | -8 | -2.0 | 1.0 | 1.9 | -0.6 | /
CCSc1nnc(NC(=O)CCn2c(=O)oc3ccccc32)s1 | i | 0.76 | -3 | / | / | / | 3.2 | 1.1 | 0.5 | -9
O=C(C1COc2ccccc2O1)N1CCN(c2ccccc2Cl)CC1 (centres undefined) | i | 0.66 | 1 | -31 | -46 | -2.5 | -1.2 | -2.6 | -0.4 | 7
Cc1ccccc1NC(=O)CSc1nc2ncc(Cl)cc2[nH]1 | i | 0.62 | 7 | 14 | 12 | 7.4 | 2.2 | -2.7 | 0.1 | -10
COc1ccccc1NC(=O)c1cc2cc(Br)ccc2cc1O | i | 0.61 | ? | -68 | -82 | -21 | -13 | 4.1 | -1.1 | 0
COc1ccc(NC(=O)c2cc(-c3ccc(OC)c(OC)c3)on2)cc1OC | / | 0.65 | -8 | / | / | / | -14 | / | -0.4 | 2
O=C(CSc1nnnn1C1CC1)Nc1cccc(S(=O)(=O)N2CCCC2)c1 | i | 0.69 | -3 | -5 | 0 | -3.2 | 0.8 | -0.1 | -0.3 | /
CC[C@]12c3[nH]c4cc(CCC(=O)N(C)C)ccc4c3CCN1C(=O)[C@@H](CC(=O)NC(C)(C)C)C[C@@H]2C(=O)N1CCN(C(=O)C2CC2)CC1 | i | 0.71 | / | 22 | 7 | 4.8 | 0.9 | 0.3 | / | /
C=CCNC(=O)c1nc2ccccc2s1 | / | 0.7 | 0 | / | / | / | 1.5 | / | 0.1 | 1
COc1ccc(C)cc1NC(=O)CN(C)S(=O)(=O)c1ccc2c(c1)c(=O)n(C)c(=O)n2C | / | 0.75 | 0 | / | / | / | 5.4 | / | / | 23
Cc1cc(N2CCCC2=O)cc(C)c1S(=O)(=O)NCCOc1ccccc1 | / | 0.71 | 2 | / | / | / | 3.8 | / | -0.1 | -4
N#Cc1cc([N+](=O)[O-])cnc1Nc1ccccc1 | / | 0.66 | -2 | / | / | / | 14 | / | 0.1 | -21
C#CCOCCOCCOCCNc1nc(N2CCN(C(=O)Cn3cc(CC(C)O)nn3)CC2)nc(N2CCN(C(=O)[C@H]([C@@H](C)CC)n3cc(CCCN=C(N)N)nn3)CC2)n1 (some centres undefined) | i | / | 6 | 11 | 10 | -5.0 | 5.8 | -0.1 | 2.1 | -2
CCC(C)Sc1nc2c(cnn2-c2ccc(C)cc2)c(=O)[nH]1 (centres undefined) | i | 0.73 | / | 3 | -6 | 1.3 | 0.8 | -4.9 | -0.5 | 11
CNC(=O)N(O)C1N(/N=C/c2ccccc2F)C(=S)SC1(C)C (centres undefined) | i | / | -2 | -3 | 5 | -1.8 | / | 1.1 | -1.1 | 0

3 records picked at random from those above:
SMILES | FGF22 binding | Ecoli growth | Beta cell apopt | Ecoli rRNA inh | Ecoli rRNA inh OD600 | Ecoli rRNA inh RFP | UCH37 DUB inh | MLL AF4-AF9 inh | Bfl-1 A1 inh | T cruzi repl
COc1ccc(OCc2nnc(NC(=O)Nc3ccccc3F)s2)cc1 | i | 0.67 | -15 | 6 | 2 | 0.2 | 2.0 | -0.4 | 0.6 | -7
Cc1cc(N2CCCC2=O)cc(C)c1S(=O)(=O)NCCOc1ccccc1 | / | 0.71 | 2 | / | / | / | 3.8 | / | -0.1 | -4
Cc1ccnc(NS(=O)(=O)c2ccc(NC(=O)CN3C(=O)c4ccccc4S3(=O)=O)cc2)n1 | i | 0.68 | -5 | 14 | 13 | 5.1 | -1.9 | -3.0 | 0.8 | 2
